Compound activity: PubChem BioAssay, several laboratories
Sa ugtP lethal – growth inhibition of S. aureus ugtP deletion strain; S. aureus RN4220 ugtP deletion, OD600 growth, 16 h; some inactives read as strong as hits; growth inhibition, % (test concentration not listed); hit rate 0.54% among 330,000;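 active = z-score under -3 and OD600 up to 0.15 on both plates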;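 note: plate controls were untreated wells for no effect and antibiotic for full effect; wells of about 80 µL received 100 nL stock; the first replicate is given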
PrP 5UTR inh – inhibition of PrP 5' UTR reporter expression | cell-based PrP 5' UTR mRNA reporter, plate reader | inhibition, % (concentration not given with the values) | hit rate 0.35% among 340,000 | AID 488862;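 active = every replicate at 50% or more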;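 note: 0 = median of the neutral control wells; tested in H4 reporter cells; numbers are from one replicate; inactives centre near -14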
Autofluor counter – counter-screen for toxin protease inhibitors: compound fluorescence; AID 624483; fluorescence intensity (concentration not given with the values); compound autofluorescence counterscreen, microsphere flow cytometry; stronger effect = higher value; hit rate 3.1% among 360,000;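 active = at least 3 SD above the mean of all compounds, about 16000 in these data; inconclusive = too few beads counted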;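 note: 100 nL of 1 mM stock went into each well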
Mtb hypoxia inh – inhibitors of hypoxia-regulated fluorescent reporter in Mycobacterium tuberculosis. M. tuberculosis hypoxia-regulated fluorescent reporter, fluorescence. fluorescence inhibition, % (concentration not given with the values). hit rate 0.1% among 300,000;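 active = 35 to 45% if threefold the growth effect, above 45% if 1.5-fold the growth effect; inactive = the rest, general growth blockers included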;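 note: wells of about 50 µL received 100 nL stock; 0% = vehicle wells and 100% = reference inhibitor wells; whole bacteria with a GFP reporter of the hypoxia response; strong numbers were not always called active; many hits fall short of the cut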
BJeLR lethal – BJeLR cell viability loss. inhibition, % (no concentration beside the values). hit rate 0.17% among 300,000. BJeLR (HRASV12) viability, CellTiter-Glo ATP luminescence, 48 h; reference of the scale not given here;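 active = replicate mean above 50%; inconclusive = above 50% but judged a plate artefact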;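 note: 50 nL library stock added to about 25 µL; numbers are from one replicate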
RN4220 kill – S. aureus RN4220 growth inhibition; OD600, 16 h; inhibition, % (no concentration beside the values); hit rate 0.33% among 330,000; AID 1259311;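 active = z-score of -3 or lower and OD600 up to 0.18 on both plates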;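 note: plate controls were untreated cells for no effect and reference antibiotic for full effect; stock transfer was 100 nL into about 80 µL; one replicate is shown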
Mtb hypoxia inh growth – also measured in Mtb hypoxia inh; calls as there; growth inhibition, %; measured here: M. tuberculosis growth (absorbance);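 0% = vehicle and 100% = reference antibiotic; read after six days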
The depositor's hits bear a star; ? = inconclusive; / = not tested or not shown.

Each structure is followed by: Mtb hypoxia inh	Mtb hypoxia inh growth	BJeLR lethal	RN4220 kill	Sa ugtP lethal	PrP 5UTR inh	Autofluor counter
Cc1cc(C)c(Cn2c3ccccc3c3cnn(CC(=O)NCc4ccccn4)c(=O)c32)c(C)c1
  /	/	-14.7	/	/	-17.8	5424
COc1ccc(NC(=S)N2CCCN(Cc3cc(C)ccc3C)C2)cc1
  2.6	-6.9	-2.3	0.8	-1.1	-23.7	3878
CC(C)CCSc1nc(N)c(C#N)cc1C#N
  -0.9	-8.5	-0.2	5.6	2.6	/	9111
O=[N+]([O-])c1ccc(NCCCNS(=O)(=O)c2ccccc2)cc1
  14.3	6.3	-4.5	4.8	0.5	4.3	4288
O=C(O/N=C/c1ccc(Cl)cc1)C1CCCCC1
  /	/	-2.5	/	/	-8.0	3190
CN1C(=O)CSC1=S
  /	/	4.3	/	/	-8.3	5703
COc1ccc(NC(=O)CCc2ccccc2)cc1S(=O)(=O)N1CCCCC1
  4.8	0.7	/	0.8	23.4	-16.5	5552
CC1CN(C(=O)COC(=O)COc2ccc(C#N)cc2)CC(C)O1 (centres undefined)
  0.5	-3.0	2.8	1.8	0.9	-22.8	?
O=C(OCC(=O)N1CCCC1)c1ccc(Cl)c([N+](=O)[O-])c1
  3.8	5.6	4.9	1.1	14.9	-15.7	5164
COc1cc(OC)c(S(=O)(=O)Nc2ccc(C)cn2)cc1NC(C)=O
  5.5	-1.2	-5.0	2.4	10.4	-2.0	9578
CC(C)(Oc1cccc2ccccc12)C(=O)O
  2.6	2.9	-1.6	6.3	6.6	-25.0	17702*
O=S(=O)(c1ccccc1)c1cnn2c(C(F)(F)F)cc(-c3ccc(F)cc3)nc12
  8.4	-0.9	-0.7	6.8	18.2	-17.0	15788
Cc1cc(OCC(=O)NC2CCCCC2)ccc1Cl
  15.6	11.4	2.5	-1.5	0.9	-41.2	2647
Cc1ccc(N2C(=O)N(CC(=O)Nc3ccc(C)c(C)c3)C(=O)C2C)cc1 (centres undefined)
  4.3	7.4	7.4	-2.1	-3.6	2.8	4448
CC1CCN(S(=O)(=O)c2ccc(N=NC3=C(O)CC(C)(C)CC3=O)cc2)CC1
  11.8	9.8	-1.0	3.4	4.0	-22.5	2495
CC(=O)Nc1ccc(NC(=O)c2ccc(COc3ccc4c(C)cc(=O)oc4c3)cc2)cc1
  3.4	-3.7	-3.0	7.0	-0.4	/	/
Cc1ccc(-n2nc3c(c2NC(=O)c2cccs2)CSC3)cc1
  -4.6	-8.2	-0.7	17.7	11.5	-27.8	6309
CC(C)CC(=O)Nc1ccc(C(=O)Nc2cccc(O)c2)cc1
  3.6	7.7	4.3	6.2	-1.7	-12.6	3258
COc1ccc(/C=N/NC(=O)c2ccoc2C)cc1O
  /	/	-8.9	/	/	-25.3	2540
Cc1ccc(C)c(NC(=O)CCC(=O)N2CCOc3ccccc32)c1
  5.2	4.0	-2.9	4.7	2.1	-24.4	5860
O=S(=O)(c1ccc(Cl)cc1)N1CCN2CCCC2C1 (centres undefined)
  1.2	-3.0	0.3	3.5	2.5	-18.2	4907
COc1ccc(C(=O)Nc2c(C)cc(C)cc2C)cc1OC
  1.0	11.3	-5.7	-1.9	-0.8	-2.7	4020
O=C(/C=C/c1ccccc1)NC(=S)Nc1ccc2c3c(cccc13)CC2
  3.1	4.3	-11.2	2.3	5.6	-30.2	2124
Cc1c(NC(=S)NN=Cc2ccc(O)cc2)c(=O)n(-c2ccccc2)n1C
  11.5	1.4	/	8.4	5.2	/	/
Cc1ccc(OCCCC(=O)NNC(=O)c2ccncc2)cc1
  /	/	7.0	1.8	4.3	15.5	5934
CCN(CC)CC(C(=O)N(CC)CC)P(=O)(c1ccccc1)c1ccccc1 (centres undefined)
  8.8	0.4	-4.6	2.9	-0.7	5.2	3097
O=S(=O)(c1ccc(Br)cc1)n1ccc2ccccc21
  19.8	16.7	-11.1	-0.9	14.7	-16.9	4575
O=C(NCCOc1ccc2ccccc2c1)c1cncc(Br)c1
  7.1	9.4	4.0	-0.3	8.6	-19.6	4359
NC(=O)c1c(NC(=O)Cn2cnc([N+](=O)[O-])n2)sc2c1CCCC2
  4.0	2.6	2.3	-3.5	12.4	-2.8	4761
CN(CC(=O)Nc1cccc(F)c1)C(=O)c1ccc(S(=O)(=O)N2CCCC2)cc1
  2.0	-3.2	/	-0.9	2.3	-19.3	8331

Four entries from above, reformatted.
mol: COc1ccc(NC(=S)N2CCCN(Cc3cc(C)ccc3C)C2)cc1
  Mtb hypoxia inh: 2.6; Mtb hypoxia inh growth: -6.9; BJeLR lethal: -2.3; RN4220 kill: 0.8; Sa ugtP lethal: -1.1; PrP 5UTR inh: -23.7; Autofluor counter: 3878
mol: COc1ccc(NC(=O)CCc2ccccc2)cc1S(=O)(=O)N1CCCCC1
  Mtb hypoxia inh: 4.8; Mtb hypoxia inh growth: 0.7; BJeLR lethal: /; RN4220 kill: 0.8; Sa ugtP lethal: 23.4; PrP 5UTR inh: -16.5; Autofluor counter: 5552
mol: COc1ccc(C(=O)Nc2c(C)cc(C)cc2C)cc1OC
  Mtb hypoxia inh: 1.0; Mtb hypoxia inh growth: 11.3; BJeLR lethal: -5.7; RN4220 kill: -1.9; Sa ugtP lethal: -0.8; PrP 5UTR inh: -2.7; Autofluor counter: 4020
mol: CC(C)CC(=O)Nc1ccc(C(=O)Nc2cccc(O)c2)cc1
  Mtb hypoxia inh: 3.6; Mtb hypoxia inh growth: 7.7; BJeLR lethal: 4.3; RN4220 kill: 6.2; Sa ugtP lethal: -1.7; PrP 5UTR inh: -12.6; Autofluor counter: 3258

Next part:
Each structure is followed by: Mtb hypoxia inh	Mtb hypoxia inh growth	BJeLR lethal	RN4220 kill	Sa ugtP lethal	PrP 5UTR inh	Autofluor counter
CCn1c2ccccc2c2cc(/C=N/NC(=O)c3ccc(O)cc3)ccc21
  /	/	-14.6	/	/	-18.0	2554
Oc1cccc(Nc2nc(-c3ccccc3Cl)nc3ccccc23)c1
  /	/	6.0	/	/	-23.8	4114
CC1CCN(S(=O)(=O)N2CCCC(C(=O)NCc3ccccc3Cl)C2)CC1 (centres undefined)
  -3.8	-3.2	4.9	0.6	5.8	-6.4	5189
COC(=O)[C@]1(CC(C)C)NC(c2ccc(-c3ccc(Cl)c(Cl)c3)cc2)C2C(=O)N(C)C(=O)C21 (some centres undefined)
  11.2	1.2	/	-10.5	-1.9	/	/
Cc1cc(C)c2oc(=O)cc(CN3CCCCC3)c2c1
  7.8	0.8	12.5	4.7	6.5	-6.9	3279
CCOC(=O)C1=C(C)N(CCCC(=O)O)C(=O)NC1c1ccc([N+](=O)[O-])cc1 (centres undefined)
  6.3	16.1	7.3	2.5	-4.7	-6.5	4055
NC1CCN(c2c(F)cc3c(=O)c(C(=O)O)cn(C4CC4)c3c2Cl)C1 (centres undefined)
  /	/	-7.9	100.2*	100.1*	/	4331
CC1CN(C(C)CO)C(=O)c2cc(NC(=O)c3ccncc3)ccc2OC1CN(C)C(=O)Nc1ccccc1 (centres undefined)
  3.6	4.0	/	1.6	0.4	/	/
CCC(C(=O)NC1CCCC1)N(C(=O)Cn1nnc(-c2ccc(C)o2)n1)c1cccc(OC)c1 (centres undefined)
  1.7	5.8	0.7	-3.5	11.7	-13.1	5423
CCOc1cc2[nH]c(=O)n(CCC(=O)NCCc3ccccc3)c(=O)c2cc1OCC
  9.4	6.8	11.0	5.5	3.8	-11.1	3274
CN1CCN(S(=O)(=O)c2ccc(NC(=S)NC(=O)C3CCCC3)cc2)CC1
  2.3	14.9	1.9	1.2	44.8	-7.1	3348
Cc1cccc(Nc2nc(N)nc(CN3CCN(C)CC3)n2)c1
  0.6	4.3	-1.1	4.5	3.4	-21.0	23797*
O=C1CCN(Cc2ccccc2)C=C1c1ccc2ccccc2c1
  6.6	3.1	/	12.0	16.2	-91.1	3962
CCCn1c(SCC(=O)NC)nnc1C(C)C
  /	/	1.8	6.9	10.1	-4.3	2290
CCOc1nc(-c2ccccc2O)nc2ccccc12
  9.0	4.1	0.3	4.4	11.2	-20.9	10098
C/C(=N/NC(=O)c1ccc(Cn2cccn2)o1)c1cccc(NC(=O)c2ccncc2)c1
  /	/	-3.3	/	/	-12.8	4327
Cc1nn2c(-c3ccc(F)cc3)ccnc2c1Cl
  5.9	5.6	4.9	-0.1	13.1	-26.5	3773
COc1ccc(CNC(=O)Cc2ccc(NC(=O)C3=C(C)OCCS3)cc2)cc1
  2.3	-7.4	0.0	0.3	2.0	-84.7	4422
CCCCCCSc1nnc(N)s1
  7.8	-3.5	-0.8	2.8	8.9	-1.2	?
O=C(CN(C1CCCCC1)S(=O)(=O)c1ccccc1)N1CCCC1
  13.0	7.5	6.5	-13.2	-5.4	-24.6	2904
COc1cc([C@@H]2c3cc4c(cc3[C@@H](O)[C@H]3COC(=O)[C@H]23)OCO4)cc(OC)c1O[Si](C)(C)C(C)(C)C
  /	/	-13.3	/	/	-10.4	4083
CC(C)(C)OC(=O)N[C@@H](Cc1c[nH]c2ccccc12)c1nnc(SCC(N)=O)o1
  -2.0	11.1	-12.0	2.6	3.3	-19.4	8304
Cc1ccc(S(=O)(=O)N(C)c2ccc(OCC(=O)OCc3c(C)noc3C)cc2)cc1
  /	/	1.7	7.0	8.3	-14.5	3824
COc1ccc(-c2cc(C(=O)NNC(=S)NC(=O)c3c(-c4ccccc4)noc3C)[nH]n2)cc1
  3.4	1.5	-4.5	25.6	27.6	-29.5	4715
O=C(Nc1ccccc1)c1nc[nH]c1C(=O)N1CCc2ccccc2C1
  -2.1	8.5	/	0.7	7.6	-16.5	3867
CC(=O)Nc1ccc(NC(=O)CCC(=O)Oc2ccc(C)cc2)cc1
  6.8	-4.3	-3.9	1.8	5.2	-46.6	3730
COCCN(CC(=O)Nc1ccccc1C(F)(F)F)C(=O)/C=C/c1cc(Cl)c2c(c1)OCO2
  -5.3	-0.3	/	4.4	0.4	-30.9	8090
CO/N=C/c1ccc(N2CCCC2)c([N+](=O)[O-])c1
  /	/	-4.9	/	/	-22.9	4209
Cc1ccc(-c2c(C(=O)N/N=C/c3cccs3)nnn2-c2nonc2N)cc1
  /	/	-18.0	/	/	-12.6	4375
CC1CCN(C(=O)c2ccc(CNS(=O)(=O)c3ccc(C(C)(C)C)cc3)cc2)CC1
  9.0	-2.6	/	-0.7	-10.9	-15.6	3945
O=C(NC(Cc1ccccc1)C(=O)N1CCCCC1)c1ccccc1 (centres undefined)
  -1.5	2.9	2.7	1.5	3.7	-13.5	?
O=C(Nc1ccccc1Cl)OCc1cncs1
  13.8	10.7	7.6	7.5	5.4	-1.0	4508
N#Cc1c(N)n(CCNC(=O)c2cccs2)c2nc3ccccc3nc12
  14.0	14.6	0.8	-8.5	2.3	-15.3	4114
O=C(COC(=O)CNS(=O)(=O)c1ccc(Br)cc1Cl)NCCc1ccccc1
  1.8	-0.6	-4.7	2.5	-0.2	-4.7	5161
CCc1cccc(NC(=O)Cn2cccc2)c1
  0.5	1.4	4.1	1.7	0.8	-17.1	23986*
CC(=O)Nc1cccc(C(=O)OCc2ccc([N+](=O)[O-])cc2)c1
  -1.9	13.3	-5.4	-1.8	3.6	-15.5	2839
CC(=NNC(=O)C1(C)CC1(Br)Br)c1ccc([N+](=O)[O-])cc1 (centres undefined)
  14.0	1.8	/	0.3	4.0	/	/
Cc1cc(C(C)C)n2c(nc3ccccc32)c1C#N
  12.6	8.9	-0.5	8.2	17.1	/	/
COc1cc2nc(Nc3ccc(C)c(Cl)c3)nc(N)c2cc1OC
  -5.9	-9.2	11.1	-1.7	-17.6	-2.8	4817
Cc1ccc(CNC(=O)c2c(C)cc(=O)oc2C)cc1
  10.4	8.7	-5.3	5.5	2.7	-8.7	10776

Sorted by molecular weight (low to high): some entries from above
Each structure is followed by: Mtb hypoxia inh	Mtb hypoxia inh growth	BJeLR lethal	RN4220 kill	Sa ugtP lethal	PrP 5UTR inh	Autofluor counter
Cc1ccc(-c2c(C(=O)N/N=C/c3cccs3)nnn2-c2nonc2N)cc1
  /	/	-18.0	/	/	-12.6	4375
CC(=NNC(=O)C1(C)CC1(Br)Br)c1ccc([N+](=O)[O-])cc1 (centres undefined)
  14.0	1.8	/	0.3	4.0	/	/
CC1CCN(C(=O)c2ccc(CNS(=O)(=O)c3ccc(C(C)(C)C)cc3)cc2)CC1
  9.0	-2.6	/	-0.7	-10.9	-15.6	3945
